Screening data deposited in PubChem by National Center for Advancing Translational Sciences (NCATS).
gsp antag – antagonists of gsp mutant (McCune-Albright syndrome); gsp-mutant cells, cAMP HTRF, 30 min; control for the full effect not named in the record; actives 0.4% (n = 340,000); Potency, µM (doses to about 76.9 µM), for inactives: at the top dose activity change, negative = inhibition, usual class: inhibitors; active = falling curve of any shape with a large fitted effect; inconclusive = falling curve, mostly with a smaller effect; inactive = flat or rising curve; cell line not stated here;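 note: intracellular cAMP measured with PDE inhibitor Ro 20-1724 present during compound exposure; potency is the fitted concentration of half-maximal effect; % is set by controls: 0 for no effect and ±100 for the full control effect; nearly all actives have a fitted effect of over 65% in size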
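G418-selected cells were plated in DMEM/10% FBS for 16-24 h at 37C, then treated with compounds plus the PDE inhibitor […] (300 uM solution added) for 30 min at 37C. Intracellular cAMP was measured by HTRF after 30 min lysis at room temperature.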
Menin MLL FP FL – inhibitors of human menin-MLL interaction, wild-type MLL peptide. Fluorescence polarization, fluorescein-MLL peptide displacement from menin. 290,000 tested, under 10 active. FP activity change, % at 61.4 µM; inconclusive = falling polarisation curve, or a change in total fluorescence; inactive = total fluorescence flat and polarisation flat or rising; no compound was filed as active; the % refers to the polarisation; negative = inhibition;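 note: % of control where 0% means no effect; inhibitors lower the polarisation; unlabelled MLL peptide was the positive control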
Sfp PPTase inh – Sfp phosphopantetheinyl transferase inhibition; Q9F4F7; Biochemical Sfp PPTase activity, qHTS; Potency, µM, without a hit: max response, negative = inhibition, actives largely listed as inhibitors; actives 3.5% (n = 310,000); AID 1490; active = well fitted inhibition curve with a large enough effect; inconclusive = small, poorly fitted or top-dose-only effect, or another doubt; inactive = no such curve, though single readings can be large or run the other way;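 note: the enzyme is Sfp with the accession as filed and its product quenches rhodamine fluorescence; potency is the fitted concentration of half-maximal effect; 0% = enzyme reaction without inhibitor and -100% = no enzyme wells; top concentration of the series not given in the record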
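Fluorescence-quenching assay: 15 nM Sfp-PPTase preincubated 15 min at room temperature with compound, then 5 uM rhodamine-CoA and 12.5 uM BHQ-2-labelled YbbR peptide added. Fluorescence (ex 525/em 598 nm) read at start and after 30 min; difference gives rate.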
ClpP mod – qHTS Assay for Activators of ClpP; ATP-dependent Clp protease proteolytic subunit (Bacillus subtilis (strain 168)), P80244; purified B. subtilis ClpP, FRET peptide cleavage, 20 min; Potency, µM (top dose mostly 57.5 µM), for the others: at the top dose activity change, negative = active; actives 1.9% (n = 340,000); active = well fitted falling curve with a large enough effect; inconclusive = small, poorly fitted or top-dose-only effect; inactive = no such curve, though single readings can be large or run the other way; note: potency is the fitted concentration of half-maximal effect; the source files actives as falling curves though it sought activators and does not explain the sign; nearly all actives have a fitted effect of over 65% in size; many hits overshoot -100%
Target sequence (P80244 whole entry, looked up): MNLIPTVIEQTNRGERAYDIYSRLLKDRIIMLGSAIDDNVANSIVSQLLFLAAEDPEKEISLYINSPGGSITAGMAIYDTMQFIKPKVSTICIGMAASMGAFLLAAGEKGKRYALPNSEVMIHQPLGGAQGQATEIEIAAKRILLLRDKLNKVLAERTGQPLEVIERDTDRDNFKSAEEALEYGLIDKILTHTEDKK
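Purified B. subtilis ClpP, 10 microg/mL final in Tris/HCl pH8 with KCl, BSA, glycerol and Tween-20, cleaved an Abz/nitrotyrosine-quenched decapeptide. Fluorescence (ex 320, em 430) was read at 0 and 20 min at room temperature. Delta was normalized to 5.8 microM ADEP and DMSO/no-enzyme controls.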
gsp ag – agonists of gsp mutant (McCune-Albright syndrome). AID 624287. Potency, µM (doses to about 76.9 µM), for the others: top-dose activation (cAMP increase), most hits filed as activators. actives 0.13% (n = 340,000). gsp mutant cells, cAMP HTRF, 30 min; control for the full effect not named in the record; active = well fitted activation curve with a large enough effect; inconclusive = small, poorly fitted or top-dose-only effect, or another doubt; inactive = no such curve, though single readings can be large or run the other way; cell line not stated here;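 note: phosphodiesterase inhibitor Ro 20-1724 added with compounds to block cAMP breakdown; potency is the fitted concentration of half-maximal effect; nearly all actives have a fitted effect of over 60% in size; about a fifth of the inactives were tested at one dose only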
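Cells in DMEM/10% FBS with G418 were pretreated with compounds in DMSO plus […] (300 uM stock) for 30 min at 37C. cAMP was measured by HTRF (cAMP-d2 plus anti-cAMP antibody-K) after 30 min at room temperature.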
TRPML1 inh – human mucolipin-1 channel inhibition; TRPML1-inducible cells, Ca2+ dye fluorescence, FDSS; active compounds read low; inhibition of EC80 agonist-evoked calcium signal; activity change, negative = inhibition, % (concentration not given with the values); actives 0.02% (n = 390,000); AID 624415; Q9GZU1; in the data active means activity change below about -50%; inconclusive means about -30% to -50%; inactive means above about -30%;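 note: stimulus is agonist 54-4 at its EC80 concentration; % is set by controls: 0 for no effect and ±100 for the full control effect; the text of the record puts the active cut at -80%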
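Calcium fluorescence in TRPML1-DL cells induced overnight with Tet: a 110 s read after compound pin addition, then a 110 s antagonist read after challenge with 54-4 at 4 uM final (EC80).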
TRPV1 potentiator – potentiators of human vanilloid receptor 1 (TRPV1). Q8NER1. actives 0.02% (n = 320,000). TRPV1-expressing cells, Fluo-8 calcium influx, capsaicin EC20 potentiation; host cell line not named in the record; control for the full effect not named in the record. potentiation, % at 8.33 µM. AID 540277; active means potentiation above 80%; inconclusive means 30% to 80%; inactive means below 30%; note: 0% is about no effect
Target sequence (Q8NER1 whole entry, looked up): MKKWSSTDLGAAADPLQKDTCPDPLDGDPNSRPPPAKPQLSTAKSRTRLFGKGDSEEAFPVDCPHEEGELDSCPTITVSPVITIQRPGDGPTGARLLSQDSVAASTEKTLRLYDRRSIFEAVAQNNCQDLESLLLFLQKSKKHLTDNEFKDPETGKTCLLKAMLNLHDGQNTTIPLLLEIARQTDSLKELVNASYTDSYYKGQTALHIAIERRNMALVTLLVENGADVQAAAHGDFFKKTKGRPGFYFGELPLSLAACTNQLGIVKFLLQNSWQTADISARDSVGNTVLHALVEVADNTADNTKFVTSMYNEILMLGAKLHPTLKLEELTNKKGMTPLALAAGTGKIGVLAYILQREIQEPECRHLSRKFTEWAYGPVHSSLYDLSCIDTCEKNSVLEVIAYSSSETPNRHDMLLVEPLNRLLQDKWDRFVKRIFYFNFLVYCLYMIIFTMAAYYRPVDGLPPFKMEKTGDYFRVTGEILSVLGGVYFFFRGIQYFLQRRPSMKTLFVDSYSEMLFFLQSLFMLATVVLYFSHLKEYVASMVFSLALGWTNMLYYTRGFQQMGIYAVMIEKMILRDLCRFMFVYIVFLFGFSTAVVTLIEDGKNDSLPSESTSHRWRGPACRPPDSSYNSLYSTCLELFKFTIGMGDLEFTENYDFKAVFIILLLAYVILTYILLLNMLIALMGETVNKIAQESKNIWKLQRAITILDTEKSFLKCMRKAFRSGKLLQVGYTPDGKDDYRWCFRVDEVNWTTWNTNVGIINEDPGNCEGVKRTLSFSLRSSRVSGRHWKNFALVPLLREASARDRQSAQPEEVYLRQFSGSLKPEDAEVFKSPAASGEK
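Cells expressing TRPV1 were dye-loaded with Fluo-8 and read kinetically: 10 s baseline, 3 min after compound (agonist portion), then 2 min after EC20 capsaicin (allosteric enhancer portion). Calcium-bound dye fluorescence at 480/520 nm.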
An asterisk follows results filed as active; ? = inconclusive; . = no result given; & = joins results of further samples; [ ] = another dose, or the depositor's remark. Compounds were not picked by outcome; any-hit rate near 4.9%.

SMILES	gsp antag	Menin MLL FP FL	Sfp PPTase inh	ClpP mod	gsp ag	TRPML1 inh	TRPV1 potentiator
O=C(CCCc1c[nH]c2ccccc12)N1CCCCCC1	-20%	4.6	-6%	-5.3%	16%	15	0
Cc1ccc(S(=O)(=O)Nc2csc(C)c2C(=O)O)cc1	-20%	3.1	-4%	.	-7%[15.4 µM]	22	-1
CCOC(=O)CNC(=O)C12CC3CC(CC(C3)C1)C2	5%	-4.9	7%	.	7%[15.4 µM]	14	-12
COc1cc(NC(=O)CNC(=O)Cn2cnc3sc(C)c(C)c3c2=O)cc(OC)c1OC	.	.	.	-0.7%	?	6	.
COc1cccc(C(=O)C2=NN(C(C)=O)CC2c2ccco2)c1 (stereo not drawn)	2%	-0.2	11%	.	-11%[15.4 µM]	2	-2
O=C(NC1CCN(C(=O)NC2CCCCC2)CC1)c1cccc(F)c1	18%	4.6	6%	.	-6%[15.4 µM]	-9	-1
O=C(CN1C(=O)c2ccccc2C1=O)NCCc1c[nH]c2ccc(Cl)cc12	-23%	0.2	3%	3.2%	-31%[inhibitor]	40	-8
CC(C)c1nc2ccccn2c1NC1CCCCC1	?	0.9	2%	-19%	2%	-11	6
CCN(CC)S(=O)(=O)c1ccc(N2CCCC2)c(NC(=O)c2ccc(OC)cc2OC)c1	-22%	4.0	79µM*	.	15%	24	6
CN(C)S(=O)(=O)Nc1cc(Cl)cc(Cl)c1	1%	0.2	10%	.	1%[15.4 µM]	9	9
O=C1/C(=C\c2ccco2)SC(=S)N1c1ccccc1	6%	?	?	-18%	2%	-4	4
COc1ccc(C2=NOC(C(=O)Nc3ccc4c(c3)OCCO4)C2)c(OC)c1 (stereo not drawn)	8%	-8.8	5%	-4.0%	-8%	21	-3
CC1(C)Cc2nc3sc4c(NCCO)ncnc4c3cc2CS1	-9%	5.5	-11%	3.7%	2%	25	0
Cc1ccc(N2C(=O)c3ccccc3C2=O)nc1	12%	-2.0	11%	-3.7%	-5%	-12	7
O=C(C1=NN[C@@H]2C(=O)N(Cc3ccccc3)C(=O)[C@H]12)c1ccc([N+](=O)[O-])cc1	-14%	3.4	-9%	.	1%	-15	-8
O=C(CSc1nc(O)cc(=O)n1-c1ccccc1)NCc1ccccc1	-13%	-0.3	-6%	-0.6%	-24%	9	-12
CCNc1c(NC(=O)COc2ccc(Cl)cc2)c(=O)oc2ccccc12	-12%	3.3	17%	0.3%	24%	21	10
CCOc1ccc(-n2c(SCc3ccc([N+](=O)[O-])cc3)nnc2-c2ccc(OC)cc2)cc1	-14%	1.6	-11%	2.3%	-30%	6	0
O=C(Oc1cccnc1)c1cc2ccccc2oc1=O	6%	-0.8	-1%	28µM*	-1%	18	-11
Nc1cc2nsnc2cc1Br	?	0.6	40µM*	-0.8%	-26%	16	1
Cn1c(SCC2CCCCC2)nnc1-c1ccncc1	-25%	-0.1	9%	3.4%	6%	1	-13
CC1(C)Cc2c(sc(NC(=O)COc3ccc(Cl)cc3Cl)c2C(N)=O)C(C)(C)N1	8%	.	-13%	3.6%	?	29	-11
CS(=O)(=O)c1ccc(Cl)c(NC(=O)COC(=O)CNC(=O)c2cccs2)c1	16%	.	.	0.5%	-11%	11	3
CN(C(=O)COC(=O)c1c2c(nc3ccccc13)/C(=C/c1cccc([N+](=O)[O-])c1)CCC2)C1CCS(=O)(=O)C1 (stereo not drawn)	-19%	4.8	5%	0.7%	0%	-20	5
COc1ccc(C(=O)Nc2cc(C)on2)cc1S(=O)(=O)N1CC(c2ccccc2)CC1=O (stereo not drawn)	-3%	0.5	-4%	.	2%[15.4 µM]	8	1
Cc1ccc(N2C(=O)NC(NC(=O)C3CC3)(C(F)(F)F)C2=O)cc1 (stereo not drawn)	-10%	2.8	4%	-1.4%	20%	32	25
Cc1csc(NC(=O)C2CCN(S(=O)(=O)c3cccs3)CC2)n1	-5%	2.1	18%	-0.8%	-40%[inhibitor]	-8	-6
CC(OC(=O)CC1CCCC1)C(=O)Nc1ccc(Cl)cn1 (stereo not drawn)	7%	.	.	-3.6%	-1%[15.4 µM]	-2	-7
O=S(=O)(NCC1CCCO1)c1cnc(Cl)c(Br)c1 (stereo not drawn)	-7%	1.6	24%	-1.9%	-38%[inhibitor]	-23	3
O=C(NCc1ccccc1Cl)C1CCC(CNc2c(N3CCCCC3)c(=O)c2=O)CC1 (stereo not drawn)	-8%	0.0	8%	-2.4%	8%	19	-3
CCN(CC)C(=O)C(=O)Nc1ccc(OC)c(Cl)c1	-3%	-0.1	1%	.	-5%[15.4 µM]	9	10
N#Cc1ccc(OCC(=O)N2CCc3ccccc32)cc1	4%	.	.	-16%	8%	-14	.
CCN1C(=O)/C(=C/c2cccs2)SC1=Nc1ccc(OC)cc1	12%	0.4	14%	-0.6%	5%	-25	-10
Cc1c(Cl)cccc1NC(=O)CCC(=O)NNC(=O)c1ccccc1	8%	5.7	-2%	-0.3%	-1%	7	18
Cc1cccc(N2C(=O)CS/C2=N\NC(=O)c2ccc(Br)cc2)c1C	4%	1.4	6%	-1.8%	-9%	-5	0
NC(=O)CN(c1ccc(Oc2ccccc2)cc1)S(=O)(=O)c1ccccc1	-14%	.	14%	1.6%	-21%	-8	20
COc1ccc(S(=O)(=O)N2CCN(C(=O)C3COc4ccccc4O3)CC2)cc1 (stereo not drawn)	-4%	.	.	-0.3%	?	-8	-9
COc1ccc(C(=O)NCCCCCC(=O)N/N=C/c2ccco2)cc1OC	3%	5.9	-5%	-0.3%	-7%	-16	8
O=C1C2C3CC(C2C(=O)N1c1cccc(Cl)c1)[C@H](O)C3O (stereo partly drawn)	18%	0.7	15%	1.0%	-20%	2	26
CC(C)CCN(C(=O)Nc1ccccc1)C(C)c1cccs1 (stereo not drawn)	-10%	0.5	-3%	-3.2%&4.9%	7%	-12&-4	-28
CCOC(=O)c1cnc(-n2nc(C)cc2C)nc1NNc1cc(-c2ccccc2)nc(C)n1	.	0.5	18%	.	.	.	-6
O=C(OCC1COC(c2ccccc2)(c2ccccc2)O1)c1ccccc1 (stereo not drawn)	-21%	.	.	-1.4%	?	-12	.
CCc1nc(SCC(=O)Nc2cccc(C(F)(F)F)c2)c2c(=O)n(C)c(=O)n(C)c2n1	-18%	1.6	3%	-0.6%	?	17	7
O=[N+]([O-])c1cccc2c(N3CCOCC3)ccnc12	-12%	-1.7	24%	0.0%	-44%[inhibitor]	-10	5
CSc1ncccc1C(=O)N1CCN(C(=O)c2ccccc2)CC1	5%	-2.7	4%	-0.3%	18%	-14	-13
CCOC(=O)N(Cc1ccccc1)Cc1ccc(C(=O)N[C@@H](Cc2ccccc2)C(=O)O)cc1	-3%	.	.	0.3%	-2%[15.4 µM]	-5	.
CCOc1ccc2nc(NC(=O)/C=C/c3ccc4c(c3)OCO4)sc2c1	5%	.	-2%	-3.0%	4%	-23	-19
Cc1ccc(S(=O)(=O)n2cnc3ccccc32)c(C)c1	14%	3.5	0%	-6.3%	-12%	-4	6
CCS(=O)(=O)N1CCN(C(=O)c2ccccc2[N+](=O)[O-])CC1	8%	-6.3	11%	.	10%[15.4 µM]	1	-6
COc1ccc(C2CC(c3ccc(Cl)c(Cl)c3)Nc3nc(N)nn32)cc1 (stereo not drawn)	-5%	13	2%	?	-36%[inhibitor]	-6	.
The list continues:
SMILES	gsp antag	Menin MLL FP FL	Sfp PPTase inh	ClpP mod	gsp ag	TRPML1 inh	TRPV1 potentiator
COc1ccc(N/C=C(\C#N)c2ccc(OCCCF)cc2)cc1	-19%	0.5	-5%	-4.3%	-10%[15.4 µM]	-2	17
COc1cccc(NC(=O)[C@@H]2CCCN2C(=O)[C@@H]2Cc3ccccc3CN2C(=O)OC(C)(C)C)c1	-32%	.	5%	0.1%	-6%	-4	-4
COc1ccc(-c2csc(Nc3ccc(C)cn3)n2)cc1	-47%	-1.5	6.3µM*	.	19%[15.4 µM]	-20	6
C=CCc1c(O)c(CC)cc2c(C)cc(=O)oc12	2%	14	-9%	.	22%	-16	-5
Cc1cccc(-c2nnc(SCC(=O)N3CCCC3)o2)c1	-2%	-0.1	24%	.	2%	42	1
CCCc1nc2ccccc2c(C(=O)OCC(=O)Nc2cccc(S(=O)(=O)N3CCOCC3)c2)c1CC	17%	2.8	27%	-8.5%	21%	9	-10
Cc1cccc(CC(=O)NCC(=O)NCc2cc(=O)n(C)c(=O)n2C)c1	20%	-2.7	20%	-0.8%	?	35	-4
CC[C@H](C)C(N)c1cn(C(CCCN=C(N)N)C(=O)N2CCNCC2)nn1 (stereo partly drawn)	15%	.	.	-0.9%	-56%[inhibitor]	33	10
CC(OC(=O)CCN=C1NS(=O)(=O)c2ccccc21)C(=O)NCc1ccccc1 (stereo not drawn)	4%	.	.	0.7%	?	23	7
COc1cccc2sc(N(CCCN(C)C)C(=O)c3ccc(S(=O)(=O)N4CCCc5ccccc54)cc3)nc12	16%	-1.9	?	1.0%	?	8	0
O=C(NCC1CCCN(Cc2nccs2)C1)c1cccc2ccccc12 (stereo not drawn)	-5%	.	13%	35µM*	-22%[15.4 µM]	11	2
O=C(COC(=O)c1cccc(C(=O)OCC(=O)NC2CCCCC2)n1)NC1CCCCC1	21%	3.6	11%	1.8%	?	6	-8
Cc1cccn2c(=O)c(/C=C(\C#N)C(=O)NCc3ccco3)c(N3CCCCC3)nc12	6%	3.4	-21%	-0.2%	-30%[inhibitor]	1	0
COc1ccc(OC)c(S(=O)(=O)NCCCc2ccccc2)c1	5%	4.7	4%	.	-90%[inhibitor]	-8	-18
O=c1c2c(nc3cc(-c4ccc(Cl)cc4)[nH]n13)CCS2	-7%	6.7	14%	-5.5%	0%	-7	28
